STK33 kinase inh: inhibitors of human STK33 kinase. 320,000 compounds, 0.073% hits. purified STK33, MBP phosphorylation, ADP-Glo luminescence. inhibition, % at 10 µM. AID 2661. Q9BYT3;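 active = inhibition at or above 25%, using the most active replicate where run in duplicate; inactive = inhibition below 25%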
Target sequence (Q9BYT3 whole entry, looked up): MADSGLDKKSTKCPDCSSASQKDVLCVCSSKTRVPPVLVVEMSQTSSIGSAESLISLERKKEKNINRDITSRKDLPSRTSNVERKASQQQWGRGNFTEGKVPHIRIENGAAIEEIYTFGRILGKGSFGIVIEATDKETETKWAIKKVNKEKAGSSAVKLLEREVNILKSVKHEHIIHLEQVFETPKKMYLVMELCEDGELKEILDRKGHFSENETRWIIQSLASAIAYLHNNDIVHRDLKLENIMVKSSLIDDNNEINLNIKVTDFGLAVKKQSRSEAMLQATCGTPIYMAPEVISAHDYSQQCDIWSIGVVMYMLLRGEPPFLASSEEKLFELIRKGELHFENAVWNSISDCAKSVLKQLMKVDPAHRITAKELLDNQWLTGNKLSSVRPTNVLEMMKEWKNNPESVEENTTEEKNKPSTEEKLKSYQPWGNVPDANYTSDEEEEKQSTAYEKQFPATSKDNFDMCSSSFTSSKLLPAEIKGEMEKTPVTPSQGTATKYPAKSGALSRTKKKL
* hit, by the source's call.

The opening 5 compounds, to show the layout:
SMILES	STK33 kinase inh
COc1ccc(CCN=C(N)NS(=O)(=O)c2ccc(C)cc2)cc1	2.1
O=C(Cn1c(-c2ccccc2)noc1=O)Nc1ccc(N2CCCCCC2)cc1	-1.2
COc1ccc2cc(CCNC(=O)c3ccc(Br)o3)c(=O)[nH]c2c1	1.9
COc1ccc(OC)c(N(CC(=O)NC2CCCCCC2)S(=O)(=O)c2ccc(C)cc2)c1	-2.0
O=C(NCCCn1ccnc1)/C(=C\c1ccccc1F)NC(=O)c1ccccc1	-0.9

Results (from the top)
SMILES	STK33 kinase inh
COc1ccc(CCN=C(N)NS(=O)(=O)c2ccc(C)cc2)cc1	2.1
O=C(Cn1c(-c2ccccc2)noc1=O)Nc1ccc(N2CCCCCC2)cc1	-1.2
COc1ccc2cc(CCNC(=O)c3ccc(Br)o3)c(=O)[nH]c2c1	1.9
COc1ccc(OC)c(N(CC(=O)NC2CCCCCC2)S(=O)(=O)c2ccc(C)cc2)c1	-2.0
O=C(NCCCn1ccnc1)/C(=C\c1ccccc1F)NC(=O)c1ccccc1	-0.9
CC(=O)C1C(c2ccc([N+](=O)[O-])cc2)C2C(C)=NN=C2CC1(C)O (configuration not stated)	-1.8
Cc1cc(N2CCc3ccccc32)n2ncnc2n1	-0.3
O=C1C2C3C=CC(C3)C2C(=O)N1Cc1ccc(CN2C(=O)C3C4C=CC(C4)C3C2=O)cc1 (configuration not stated)	0.4
NCCSc1c(-c2ccc(F)cc2)[nH]c2ccccc12	-1.2
COCCN(C(=O)c1ccco1)c1nnc(-c2ccc(OC)cc2)s1	-1.4
COc1ccc2cc(C(=O)C3CCCN(C(=O)c4cc5nc(C)cc(C)n5n4)C3)ccc2c1 (configuration not stated)	-1.0
Cc1ccc(OCCNC(=O)c2cncc(Br)c2)cc1C	-1.8
COc1ccccc1N1CCN(C(=O)CCCCCn2c(=O)[nH]c3ccsc3c2=O)CC1	-0.3
CC(=O)N/N=C(\C)CC(=O)NC(C)(C)C	-2.0
C=CCNc1nc(N)c([N+](=O)[O-])c(NC2CCCCC2)n1	-1.1
CCc1nc(C)cn1S(=O)(=O)c1cc(F)ccc1OC	0.3
c1ccc2c(c1)NCCS2	-1.0
CC1=NNC(=O)C1CCC(=O)N/N=C/c1c(Cl)cccc1Cl (configuration not stated)	0.7
Cc1cccc(C)c1NC(=O)N1CCCCCCC1	-0.7
O=C(CCC(=O)c1ccccc1)NCCc1c[nH]c2ccccc12	1.0
CC(C)CCC(CCN1CCOCC1)c1ccc2c(c1)OCO2 (configuration not stated)	-1.0
CCc1ccccc1NC(=O)C(C)n1nc([N+](=O)[O-])c(Br)c1C (configuration not stated)	-0.4
O=C(CO/N=C/c1ccc(OC(F)F)cc1)NC1CCCC1	0.8
Cc1cccnc1NC(=O)CNC(=O)c1cccs1	-1.5
COc1cc(CN2CCNC(=O)C2CC(=O)N(Cc2nccn2C)C(C)C)cc(OC)c1 (configuration not stated)	-0.2
Cn1c2c(c(=O)n(C)c1=O)C(c1ccc(Br)cc1)C(C#N)=C(N)N2 (configuration not stated)	-0.1
CC(=O)Nc1ccc(NC(=O)CSc2nnc(NC(=O)C3CC(=O)N(c4ccccc4)C3)s2)cc1 (configuration not stated)	-1.3
O=C(Nc1cccnc1)c1ccc(Cl)c(S(=O)(=O)N2CCc3ccccc32)c1	0.6
O=C(Nc1cccc(Cl)c1)c1ccc2c(c1)OCCO2	1.2
CCOc1ccc(NC(=O)CN(C)C(=O)c2ccc(N3CCCCCC3)c([N+](=O)[O-])c2)cc1OCC	0.5
COc1cc(NC(=O)c2cccs2)ccc1NC(=O)c1ccccc1Cl	-0.4
CN(C)N1C(N)=C(C#N)C(c2cccnc2)C2=C1CC(C)(C)CC2=O (configuration not stated)	-0.3
COc1ccc(C2CC(c3ccccc3OC(C)=O)=NN2C(=O)/C=C/c2ccccc2)cc1OC (configuration not stated)	-1.3
Cc1cnc(C(=O)Nc2ccc(C(=O)N3CCCCC3)cc2)cn1	0.1
O=C(COc1coc(CN2CCCc3ccccc32)cc1=O)Nc1ccccc1	0.5
O=C(CCCOc1ccccc1)Nc1ccc2c(c1)OCCO2	-0.5
CCOC(=O)C(NC(C)=O)C(=O)Nc1c(C)cccc1C (configuration not stated)	-1.4
Cc1cccc(N2CCN(S(=O)(=O)c3c(C(=O)N4CCCCC4)c(C)n(C)c3C)CC2)c1C	0.0
COc1ccc(C(C(=O)NC2CCCC2)N(C(=O)c2ccoc2C)c2ccc(C)cc2)cc1 (configuration not stated)	-2.0
Cc1csc(-c2cnn(-c3ccccc3)c2NC(=O)c2cccc(F)c2)n1	-0.3
Cc1nc(N2CCC(C)CC2)c2nnn(Cc3ccccc3)c2n1	0.6
O=C(Nc1nccs1)C1CC(=O)N(Cc2ccco2)C1 (configuration not stated)	-0.9
CC(C)CN=C(NS(=O)(=O)c1ccccc1)C(Cl)(Cl)Cl	-1.7
C=CCn1c(SCC(=O)N2CCOCC2)nnc1C(C)NC(=O)c1ccccc1 (configuration not stated)	-1.2
O=C1CNc2ccc(C(=O)N3CCN(c4ccccn4)CC3)cc2N1	0.8
O=C(NCc1ccco1)Nc1ccc2snnc2c1	-0.1
Cc1ccc(S(=O)(=O)NCC(c2ccc3c(c2)OCO3)N2CCN(c3ccccc3)CC2)cc1 (configuration not stated)	0.7
COc1ccc(-n2ccnc(SCC(=O)NCc3ccccc3Cl)c2=O)cc1	11.4

Arranged by number of heavy atoms (lowest first): some entries from above
SMILES	STK33 kinase inh
CC(C)CN=C(NS(=O)(=O)c1ccccc1)C(Cl)(Cl)Cl	-1.7
COc1ccc(C(C(=O)NC2CCCC2)N(C(=O)c2ccoc2C)c2ccc(C)cc2)cc1 (configuration not stated)	-2.0
Cc1ccc(S(=O)(=O)NCC(c2ccc3c(c2)OCO3)N2CCN(c3ccccc3)CC2)cc1 (configuration not stated)	0.7

(listing goes on)
SMILES	STK33 kinase inh
O=C(O)c1cccc2c1C(=O)N(CC1CCCO1)C2 (configuration not stated)	0.6
O=[N+]([O-])c1cccnc1Sc1ccccc1Cl	-1.2
Cc1ccc(N(C)C(=O)CCS(=O)(=O)c2ccc3c(c2)oc(=O)n3C)cc1	0.2
CSc1ccc(C#N)cc1NC(=O)c1ccc(Cl)cc1Cl	-0.2
O=C(c1cccc([N+](=O)[O-])c1)c1ccc2[nH]c(=O)[nH]c2c1	-0.7
COc1ccc(C2(CNC(=O)c3ccc(OCC(C)C)cc3)CCOCC2)cc1	0.4
O=C(CCSc1nnc(-c2ccncc2)o1)Nc1ccccc1	-0.1
Nc1c(C(=O)Nc2ccc3c(c2)OCCO3)nnn1Cc1ccccc1	0.3
CC1(c2nnc(-c3ccc(F)cc3)o2)CC(c2ccc([N+](=O)[O-])cc2)=NO1 (configuration not stated)	0.5
CCCC(=O)Nc1ccc(C(=O)N/N=C/c2ccc([N+](=O)[O-])o2)cc1	-0.4
CCCCCC[n+]1c(-c2ccc(Cl)cc2Cl)csc1Nc1ccccc1	-0.8
C=CCc1ccc(OCCn2cncn2)c(OC)c1	0.2
C#CCOCCOCCOCCNc1nc(N2CCOCC2)nc(N2CCN(C(=O)[C@H]([C@@H](C)CC)n3cc([C@@H](N)Cc4ccc(O)cc4)nn3)CC2)n1	-0.6
Cc1cccc2c1CC(C)(C)NC2=C(C#N)C#N	-2.1
Cc1ccc(CN(Cc2ccco2)C(=S)NCC(=O)NC2CC2)cc1	-0.8
COc1ccc(-c2nc3cc(C)ccn3c2NC(=O)c2c(F)cccc2Cl)cc1	-1.9
CCOc1cccc2sc(N(CCN(CC)CC)C(=O)c3cccc(N4C(=O)CCC4=O)c3)nc12	-1.4
CCN(CC)CCCNC(=O)c1cn(CC)c2ccc(S(=O)(=O)N3CCc4ccccc4C3)cc2c1=O	-0.9
Cc1ccccc1NC(=O)C1CCN(c2cnccn2)CC1	-1.0
CCCCC(CC)Cn1c(N)c(C#N)c2nc3ccccc3nc21 (configuration not stated)	0.0
COC(C/C=C\[C@H](O)COCc1ccccc1)OC	0.7
CNCCCOc1cc(C)cc(C)c1C	1.0
CCOc1c(S(=O)(=O)N2CCCC2)ccc(Cl)c1Cl	-2.1
COCC(=O)N1CCC(Oc2ccc(C(=O)NC3CCOC(C)(C)C3)cc2)CC1 (configuration not stated)	-0.9
O=C(CNCC1CCCCC1)Nc1ccc(OC(F)(F)F)cc1	-2.0
CC(=O)Nc1nnc(SCC(=O)c2ccc3c(c2)Cc2ccccc2-3)s1	0.0
CCOC(=O)C1(C(=O)O)NC(=O)CC1c1ccccc1 (configuration not stated)	-1.3
O=c1c(CN2CCN(Cc3ccccc3F)C(CCO)C2)coc2ccccc12 (configuration not stated)	-1.3
N=c1c2c(-c3ccccc3)c(-c3ccccc3)oc2ncn1CCCN1CCOCC1	-0.5
O=C(Nc1ccc(Cc2ccncc2)cc1)c1cc([N+](=O)[O-])ccc1N1CCOCC1	0.3
NC(=O)CSc1nnc(-c2ccccn2)n1N	-0.8
Cc1cc(C)n(CC(=O)Nc2ccccc2)n1	-0.6
COc1ccc(C)cc1N(CC(=O)N1CCCCCC1)S(=O)(=O)c1ccc(C)cc1	-1.5
CCOC(=O)c1ccc(CNC(=O)C(Cc2c[nH]c3ccccc23)NC(C)=O)o1 (configuration not stated)	-0.1
COc1ccc(CCN2CN(S(=O)(=O)c3ccccc3)c3nc4ccccc4nc32)cc1OC	0.3
Cc1ccc(CN2CCc3c(OCC(=O)Nc4cc(C)ccc4C)cccc3C2=O)cc1	1.1
Cc1ccc(C)c(NC(=O)COC(=O)c2ccc3c(c2)OCO3)c1	-2.1
Cc1ccc(S(=O)(=O)N2CC(O)CC2C(=O)O)cc1 (configuration not stated)	-1.3
CN(Cc1ccccc1)C(=O)CN1C(=O)COc2ccc(S(=O)(=O)N3CCCC3)cc21	1.5
Cc1ccccc1OC(=O)n1c(=S)oc2cc(Cl)ccc21	-0.9
Cc1cccc(Cn2c(C(C)O)nc3ccccc32)c1 (configuration not stated)	-0.4
O=C(NC(=S)Nc1ccc(CN2CCOCC2)cc1)c1ccc([N+](=O)[O-])cc1Cl	-1.5
COc1ccc(OC)c(S(=O)(=O)NCCOC23CC4CC(CC(C4)C2)C3)c1	-0.4
O=C(c1ccc(CNS(=O)(=O)c2ccc(Br)cc2)cc1)N1CCCC1	-1.1
CCc1ccc(NC(=O)c2noc3c2CCc2ccccc2-3)cc1	-1.6
COc1cccc(CN2CCCC(C(=O)c3ccc4c(c3)OCO4)C2)c1O (configuration not stated)	-0.4
COc1ccc(C(=O)c2c(-c3cccc(C)c3)oc3ccc(N4CCOCC4)cc23)cn1	7.2
CC1=NN(C(=O)CCc2ccccc2O)C(O)(C(F)(F)F)C1 (configuration not stated)	-0.9
CC1(C)CC(=O)C(C(C2=C(O)CC(C)(C)CC2=O)c2ccco2)C(=O)C1 (configuration not stated)	-1.2
Cc1cc(C(C)(C)C)cc(S(=O)(=O)NCC(=O)O)c1C	2.0
Cc1cccc(NC(=O)COc2ccc(Br)cc2/C=N/O)c1	-0.7
O=C(O)c1ccc(CSc2nnc(Cc3ccccc3)o2)cc1	-1.8
O=C(O)c1ccccc1/C=N/Nc1nc(N2CCCCC2)nc(N2CCCCC2)n1	0.4
COc1ccc2nc(N3CCCCC3)c(C#N)cc2c1	1.2
Cc1ccc(NC(=O)COC(=O)CN2C(=O)COc3ccccc32)cc1	-0.2
COc1ccc(C(=O)N2CCN(c3ccc(N4CCOCC4)nn3)CC2)cc1OC	-1.6
C/C=C/c1ccc(OCc2cc(=O)n3cc(C)ccc3n2)c(OC)c1	-1.8
CC(C)(C)NS(=O)(=O)c1ccc(N2C(=O)c3ccccc3C2=O)cc1	-0.1
COc1ccc(OC)c(C(c2nnnn2CCC(C)C)N2CCN(C(=O)c3ccco3)CC2)c1 (configuration not stated)	-0.9
Cc1ccc(OCC(=O)OCc2c(C)noc2C)cc1C	-1.2

More entries follow:
SMILES	STK33 kinase inh
CCCCCCCOC1(c2ccccc2)OC(=O)c2ccccc21 (configuration not stated)	1.1
Cc1ccc2c(c1)Oc1ccc(NC(=O)CCCl)cc1C(=O)N2	1.2
Cc1nc2oc3ccc(Cl)cc3c(=O)c2cc1C(=O)O	-0.7
Cn1c(Cn2c(=O)sc3ccccc32)nnc1SCC(=O)NC1CCCCC1	0.7
CN1CCN(c2ccccc2NC(=O)c2cc3c(s2)-c2ccccc2OC3)CC1	0.9
CC(C)Cc1nnc(NC(=O)Cc2ccccc2[N+](=O)[O-])s1	-1.5
COc1ccc2cc(CN(C(=O)Nc3ccccc3)C3CCCC3)c(=O)[nH]c2c1	-0.5
CCOC(=O)c1c(-n2cccc2)sc2c1CCCC2=O	0.0
CN(CC(=O)NCCc1ccccn1)S(=O)(=O)c1ccc(Cl)cc1	-0.2
CCCn1c(N)c(N(CCOC)C(=O)CSCC(=O)Nc2ccc(OC)cc2)c(=O)[nH]c1=O	-1.6
Cc1ccnc(Nc2nc(-c3ccc(O)cc3O)cs2)c1	6.4
O=C1CC(/C=C/c2ccco2)=Nc2ccccc2N1	0.4

An excerpt from above in order of the STK33 kinase inh value, smallest number first.
SMILES	STK33 kinase inh
Cc1nc2oc3ccc(Cl)cc3c(=O)c2cc1C(=O)O	-0.7
CN(CC(=O)NCCc1ccccn1)S(=O)(=O)c1ccc(Cl)cc1	-0.2
O=C1CC(/C=C/c2ccco2)=Nc2ccccc2N1	0.4

Continuation.
SMILES	STK33 kinase inh
O=C(NCc1ccc(F)cc1)C(c1cccnc1)N(C(=O)c1csnn1)c1ccccc1 (configuration not stated)	-0.9
CCOc1ccc(/C=C(\C#N)C(=O)Nc2cccnc2)cc1	-1.6
O=[N+]([O-])c1cccc(S(=O)(=O)Nc2cccc(-c3ccc(N4CCOCC4)nn3)c2)c1	-1.1
O=C(CCN1C(=O)C2C3C=CC(C3)C2C1=O)Nc1ccccc1F (configuration not stated)	2.0

Source: PubChem BioAssay (Broad Institute)

Some of the compounds tested; most or all hits stand in other tables.
